Vaccinia inh = Vaccinia orthopox stage-specific inhibition; Vaccinia-infected cells, mCherry/Venus stage reporter fluorescence; active compounds read low; some inactives read as strong as hits; activity change (mCherry), % (concentration not given with the values); actives 0.01% (n = 89,000); AID 1053133;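 active = mCherry past -33% and 40 or more points under the early reporter, replicates agreeing; inconclusive = past -33% without that gap or agreement; tested in A549 cells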;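 also: scaled between vehicle wells and reference inhibitor wells; 23 nL library stock went into each well; one replicate is shown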
Vaccinia inh Venus = second read-out of Vaccinia inh, no call of its own (marks repeat the call); activity change (Venus), %; measured here: Venus reporter, other viral stage;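 negative = less Venus signal; first of two replicates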
* marks the source's active call; other numbers are inactive results; ? = inconclusive; . = no result given.

SMILES | Vaccinia inh | Vaccinia inh Venus
COCC(=O)N1C[C@H](C)[C@@H](OC)CN(C)C(=O)c2cc(NC(=O)NC(C)C)ccc2OC[C@H]1C | 6 | 2
C[C@H]1CN([C@@H](C)CO)C(=O)c2cccc(NC(=O)CCCCCC(=O)Nc3ccccc3N)c2O[C@H]1CN(C)CC1CCCCC1 | 10 | 2
C[C@@H]1CN([C@@H](C)CO)C(=O)c2cc(C3=CCCCC3)cnc2O[C@H]1CN(C)Cc1ccccc1C(=O)O | 7 | 1
O=C(C[C@@H]1CC[C@H]2[C@@H](COC[C@@H](O)CN2C(=O)Nc2ccccc2)O1)NCCCN1CCOCC1 | 4 | -1
CO[C@@H]1CN(C)C(=O)c2ccc(NC(=O)Nc3ccccc3F)cc2OC[C@@H](C)N(Cc2ccccc2C(=O)O)C[C@H]1C | -2 | 2
O=C(c1ccccc1)N1CC[C@@H]2[C@H](CO)Nc3ccc(C#Cc4ccccc4F)cc3[C@@H]21 | -9 | 0
CO[C@H]1CN(C)C(=O)c2cc(NC(=O)c3nc4ccccc4s3)ccc2OC[C@H](C)NC[C@H]1C | -16 | -5
CCNC(=O)C[C@H]1C=C[C@H](NC(=O)C2CCC2)[C@H](CO)O1 | -5 | 1
O=C(C[C@@H]1CC[C@@H]2[C@H](COC[C@H](O)CN2S(=O)(=O)c2cccc(F)c2)O1)NCc1ccc2c(c1)OCO2 | -16 | -19
C/C=C/c1ccc([C@H]2[C@@H](CO)N(CCC)[C@H]2CN(CC)C(=O)c2ccccn2)cc1 | -10 | -5
COc1ccc(S(=O)(=O)N[C@H]2CC[C@H](CCn3cc(-c4ccccc4F)nn3)O[C@@H]2CO)cc1 | ? | .
C[C@H](CO)N1C[C@H](C)[C@@H](CN(C)C(=O)C2CCC2)Oc2cc(-c3cccnc3)ccc2S1(=O)=O | 8 | 2
C[C@@H]1CN([C@H](C)CO)C(=O)c2cc(NC(=O)CCCN(C)C)ccc2O[C@@H](C)CCCCO[C@H]1CN(C)S(=O)(=O)c1ccc(F)cc1 | 6 | -6
O=C(C[C@H]1C[C@@H]2c3cc(NC(=O)CC4CC4)ccc3O[C@@H]2[C@H](CO)O1)NCC1CC1 | 15 | 26
CCCC#Cc1ccc([C@@H]2[C@H](CO)N3C(=O)CN(S(=O)(=O)Cc4ccccc4)C[C@@H]23)cc1 | -5 | -2
CCC(=O)N1C[C@H](C)[C@H](OC)CN(C)C(=O)c2cc(NC(=O)NC3CCCC3)ccc2OC[C@@H]1C | 12 | 13
C/C=C/c1ccc([C@@H]2[C@H](C#N)N(C(=O)NC3CCCCC3)[C@H]2CO)cc1 | -19 | -3
CC(=O)N(C)C[C@@H]1Oc2cc(C#C[C@H](C)O)ccc2S(=O)(=O)N([C@H](C)CO)C[C@H]1C | 7 | 10
COC(=O)C[C@H]1CC[C@H]2[C@@H](COc3ccc(NC(=O)C4CCOCC4)cc3C(=O)N2C)O1 | -1 | 6
CCCC(=O)Nc1ccc2c(c1)C(=O)N(C)[C@@H]1CC[C@H](CC(=O)NCc3cccc(F)c3)O[C@H]1CO2 | 1 | 3
C[C@H]1CCCCO[C@H](CN(C)S(=O)(=O)c2ccc(Cl)cc2)[C@@H](C)CN([C@@H](C)CO)C(=O)c2cc(NC(=O)CCC(F)(F)F)ccc2O1 | ? | .
CCCNC(=O)Nc1ccc2c(c1)C(=O)N(C)[C@@H]1CC[C@@H](CC(=O)NCc3ccccc3)O[C@@H]1CO2 | -4 | -4
C[C@H]1CN([C@@H](C)CO)C(=O)c2cc(C3=CCCC3)cnc2O[C@H]1CN(C)S(=O)(=O)c1cn(C)cn1 | 19 | 21
Cc1ccccc1S(=O)(=O)NCC[C@H]1CC[C@H](NC(=O)C2CCCC2)[C@H](CO)O1 | -9 | 11
C[C@H]1CN([C@@H](C)CO)C(=O)c2cc(NC(=O)Nc3cccc4ccccc34)ccc2O[C@@H]1CN(C)Cc1ccc(C(=O)O)cc1 | 7 | 1
C[C@@H]1CN([C@@H](C)CO)C(=O)CCCn2nncc2CO[C@@H]1CN(C)S(=O)(=O)c1ccc(C#N)cc1 | 1 | 3
COc1ccc2c3c([nH]c2c1)[C@H](CO)N(C(=O)CN1CCOCC1)CC31CN(C(C)=O)C1 | 43 | 24
C[C@@H]1CCCCO[C@@H](CN(C)C(=O)Nc2ccccc2)[C@@H](C)CN([C@H](C)CO)C(=O)c2cc(NC(=O)Nc3ccc4c(c3)OCO4)ccc2O1 | 19 | 6
O=C(C1CC1)N1[C@@H](CO)[C@@H]2c3ccccc3N(S(=O)(=O)c3ccccc3)C[C@@H]21 | 12 | 8
C[C@H]1CN([C@@H](C)CO)C(=O)Cc2cc(NC(=O)CCC(F)(F)F)ccc2O[C@@H]1CN(C)C(=O)Nc1ccc(F)cc1 | 15 | 9

Ordered by molecular weight (largest number first): eleven of the compounds above
SMILES | Vaccinia inh | Vaccinia inh Venus
C[C@@H]1CCCCO[C@@H](CN(C)C(=O)Nc2ccccc2)[C@@H](C)CN([C@H](C)CO)C(=O)c2cc(NC(=O)Nc3ccc4c(c3)OCO4)ccc2O1 | 19 | 6
C[C@H]1CN([C@@H](C)CO)C(=O)c2cccc(NC(=O)CCCCCC(=O)Nc3ccccc3N)c2O[C@H]1CN(C)CC1CCCCC1 | 10 | 2
CO[C@@H]1CN(C)C(=O)c2ccc(NC(=O)Nc3ccccc3F)cc2OC[C@@H](C)N(Cc2ccccc2C(=O)O)C[C@H]1C | -2 | 2
C[C@H]1CN([C@@H](C)CO)C(=O)c2cc(C3=CCCC3)cnc2O[C@H]1CN(C)S(=O)(=O)c1cn(C)cn1 | 19 | 21
CCCC(=O)Nc1ccc2c(c1)C(=O)N(C)[C@@H]1CC[C@H](CC(=O)NCc3cccc(F)c3)O[C@H]1CO2 | 1 | 3
O=C(C[C@@H]1CC[C@H]2[C@@H](COC[C@@H](O)CN2C(=O)Nc2ccccc2)O1)NCCCN1CCOCC1 | 4 | -1
COCC(=O)N1C[C@H](C)[C@@H](OC)CN(C)C(=O)c2cc(NC(=O)NC(C)C)ccc2OC[C@H]1C | 6 | 2
COC(=O)C[C@H]1CC[C@H]2[C@@H](COc3ccc(NC(=O)C4CCOCC4)cc3C(=O)N2C)O1 | -1 | 6
O=C(c1ccccc1)N1CC[C@@H]2[C@H](CO)Nc3ccc(C#Cc4ccccc4F)cc3[C@@H]21 | -9 | 0
Cc1ccccc1S(=O)(=O)NCC[C@H]1CC[C@H](NC(=O)C2CCCC2)[C@H](CO)O1 | -9 | 11
C/C=C/c1ccc([C@H]2[C@@H](CO)N(CCC)[C@H]2CN(CC)C(=O)c2ccccn2)cc1 | -10 | -5

Additional results.
SMILES | Vaccinia inh | Vaccinia inh Venus
COc1ccc(C(=O)Nc2ccc3c(c2)C(=O)N(C)C[C@@H](OC)[C@H](C)CN(C)[C@@H](C)CO3)cc1 | 3 | 1
C[C@H](CO)N1C[C@H](C)[C@H](CN(C)S(C)(=O)=O)Oc2ccc(NC(=O)CCCCCC(=O)Nc3ccccc3N)cc2C1=O | 6 | 6
CO[C@@H]1CN(C)C(=O)c2ccc(NC(=O)NC(C)C)cc2OC[C@H](C)N(CC2CC2)C[C@H]1C | -8 | 2
COc1ccc(NC(=O)Nc2ccc3c(c2)C(=O)N([C@@H](C)CO)C[C@@H](C)[C@H](CN(C)S(=O)(=O)c2ccc(C)cc2)OCCCC[C@H](C)O3)cc1 | 5 | 8
C[C@@H]1CCCCO[C@@H](CN(C)C(=O)Nc2ccc(F)cc2)[C@H](C)CN([C@H](C)CO)C(=O)c2cc(NC(=O)Nc3cccc4ccccc34)ccc2O1 | -5 | 1
C[C@@H](NC(=O)C[C@@H]1C=C[C@@H](NC(=O)C2CCOCC2)[C@@H](CO)O1)c1ccccc1 | 4 | -2
COCC(=O)Nc1ccc2c(c1)[C@@H]1C[C@@H](CC(=O)NCCc3ccccc3)O[C@@H](CO)[C@@H]1O2 | 10 | 6
C[C@H]1CN([C@@H](C)CO)S(=O)(=O)c2ccc(Br)cc2O[C@@H]1CN(C)C(=O)Nc1ccc2c(c1)OCO2 | -5 | -11
COc1ccc(C#Cc2ccc3c(c2)O[C@H](CN(C)C(=O)Nc2cccc(OC)c2)[C@@H](C)CN([C@@H](C)CO)S3(=O)=O)cc1 | ? | .
C[C@H]1CN([C@@H](C)CO)C(=O)c2cccc(NS(=O)(=O)c3cccs3)c2O[C@@H]1CN(C)Cc1ccc(C(=O)Nc2ccccc2N)cc1 | 19 | 8
CC(C)NC(=O)[C@@]1(Cc2ccccc2I)c2ccccc2C(=O)N(Cc2ccccc2C(F)(F)F)[C@H]1c1ccc(CO)cc1 | -17 | -8
O=C(N[C@@H]1CC[C@@H](CCNS(=O)(=O)c2ccc(F)cc2)O[C@H]1CO)c1cnccn1 | -9 | 5
Cc1cc(C(=O)Nc2cccc3c2O[C@@H](CN(C)Cc2ccc(-c4ccccc4)cc2)[C@H](C)CN([C@H](C)CO)C3=O)n(C)n1 | ? | .
Cc1ccc(S(=O)(=O)Nc2cccc3c2O[C@@H](CN(C)C)[C@@H](C)CN([C@@H](C)CO)C3=O)cc1 | -4 | 0
C[C@@H]1CN([C@@H](C)CO)C(=O)Cc2cc(NC(=O)CCCCCC(=O)Nc3ccccc3N)ccc2O[C@H]1CN(C)Cc1ccncc1 | 16 | 8
CO[C@H]1CN(C)C(=O)c2cc(NC(=O)NC3CCCCC3)ccc2OC[C@H](C)N(C)C[C@H]1C | 12 | 14
CN1c2ccc(C3=CCCCC3)cc2[C@H]2[C@H](CCN2C(=O)C2CC2)[C@@H]1CO | ? | .
CN(C)CC#Cc1ccc([C@H]2[C@H]3CN(S(=O)(=O)c4ccccc4F)CCCCN3[C@H]2CO)cc1 | -16 | -12
COCc1cn(CC[C@@H]2CC[C@H](NC(=O)Nc3ccc4c(c3)OCO4)[C@@H](CO)O2)nn1 | 19 | 20
CCCN(C)C[C@H]1Oc2cc(C#Cc3ccncc3)ccc2S(=O)(=O)N([C@H](C)CO)C[C@H]1C | -13 | -8
CO[C@H]1CN(C)C(=O)c2cc(NC(C)=O)ccc2OC[C@@H](C)N(Cc2cncnc2)C[C@H]1C | 17 | 21
COc1ccc(S(=O)(=O)Nc2ccc3c(c2)CC(=O)N([C@H](C)CO)C[C@@H](C)[C@H](CN(C)S(=O)(=O)c2cn(C)cn2)O3)cc1 | 19 | 5
CCCNC(=O)N1C[C@@H](O)COC[C@H]2O[C@H](CC(=O)OC)CC[C@@H]21 | 19 | 5
N[C@H]1CC[C@H](CCn2cc(-c3cccc(F)c3)nn2)O[C@@H]1CO | -3 | -3
O=C(C[C@H]1C[C@H]2c3cc(NC(=O)C4CCC4)ccc3O[C@H]2[C@@H](CO)O1)NCc1cccnc1 | 17 | 5
CS(=O)(=O)Nc1ccc2c(c1)[C@H]1C[C@H](CC(=O)NCC(F)(F)F)O[C@H](CO)[C@H]1O2 | 0 | 5
CC(C)NC[C@@H]1[C@@H](c2ccc(C3=CCCCC3)cc2)[C@H](CO)N1C(=O)NC(C)C | ? | .
C[C@H]1CN([C@@H](C)CO)C(=O)c2cc(NC(=O)Nc3ccc(C(F)(F)F)cc3)ccc2O[C@@H]1CN(C)Cc1ccc(C(F)(F)F)cc1 | -14 | -5
CO[C@H]1CN(C)C(=O)c2ccc(NC(=O)Nc3ccccc3F)cc2OC[C@H](C)NC[C@@H]1C | -9 | -10
CC(C)CC#Cc1ccc([C@@H]2[C@H]3CN(C(=O)NC4CCCCC4)CC(=O)N3[C@H]2CO)cc1 | -21 | -23

Additional results.
Compound,Vaccinia inh,Vaccinia inh Venus
CC(=O)N(C)C[C@H]1Oc2cc(C#Cc3ccccc3F)ccc2S(=O)(=O)N([C@@H](C)CO)C[C@@H]1C,-30,-16
COc1ccc(CN(C)C[C@@H]2Oc3ccc(NC(=O)NC(C)C)cc3C(=O)N([C@H](C)CO)C[C@@H]2C)cc1,10,6
N#C[C@@H]1[C@@H](c2ccc(C3=CCCCC3)cc2)[C@H](CO)N1C(=O)CN1CCOCC1,7,3
O=C([C@@H]1[C@@H](CO)[C@@H]2Cn3c(ccc(/C=C/c4ccccc4)c3=O)[C@H]1N2)N1CCCCC1,-1,2
N#C[C@H]1[C@@H](c2ccc(C#CC3CCCC3)cc2)[C@H](CO)N1C(=O)Cc1ccccn1,-7,-11
C[C@H](CO)N1C[C@H](C)[C@H](CN(C)C(=O)NC2CCCC2)Oc2ncc(-c3cccc(C(F)(F)F)c3)cc2C1=O,-12,-9
C[C@H](CO)N1C[C@H](C)[C@@H](CN(C)Cc2ccccc2F)Oc2ncc(/C=C/c3ccccc3)cc2C1=O,?,.
CO[C@@H]1CN(C)C(=O)c2cc(NC(=O)NC3CCCCC3)ccc2OC[C@@H](C)N(CC2CCOCC2)C[C@H]1C,-14,-13
COc1ccc(S(=O)(=O)N(C)C[C@H]2Oc3ccc(NS(=O)(=O)c4c(C)noc4C)cc3C(=O)N([C@H](C)CO)C[C@@H]2C)cc1,-9,7
C[C@@H]1CN([C@H](C)CO)C(=O)c2cccc(NC(=O)c3cnccn3)c2O[C@@H]1CN(C)CC1CC1,-4,4
COc1ccc(NC(=O)N(C)C[C@H]2Oc3c(NS(C)(=O)=O)cccc3C(=O)N([C@@H](C)CO)C[C@@H]2C)cc1,45,24
C[C@@H]1CN([C@H](C)CO)C(=O)c2cc(NS(=O)(=O)c3ccccc3)ccc2O[C@@H](C)CCCCO[C@@H]1CN(C)S(=O)(=O)c1ccccc1,-27,-19
C[C@H](CO)N1C[C@H](C)[C@H](CN(C)C(=O)c2ccncc2)OCCCC[C@H](C)Oc2ccc(NC(=O)Cc3ccccc3)cc2C1=O,17,10
O=C(Nc1cccc(F)c1)N1CCCCN2[C@@H](CO)[C@H](c3ccc(C#Cc4ccccc4)cc3)[C@@H]2C1,?,.

High-throughput results from PubChem BioAssay.

An excerpt; the hit share may differ from the screen's.
